gsp antagonist: gsp mutant antagonism. gsp-mutant cells, cAMP HTRF, 30 min; control for the full effect not named in the record. Potency, µM (highest dose often 76.9 µM), for the others: at the top dose activity change, negative = inhibition, actives largely listed as inhibitors. hit rate 0.4% among 340,000; active = falling curve of any shape with a large fitted effect; inconclusive = falling curve, mostly with a smaller effect; inactive = flat or rising curve; cell line not stated here;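 further: intracellular cAMP measured with PDE inhibitor Ro 20-1724 present during compound exposure; potency means the concentration at half of the fitted maximal effect; on the % scale 0 is the no-effect control and ±100 the full control effect; nearly all actives have a fitted effect of over 65% in size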
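Cells in G418 medium, seeded 16-24 h, 37C; buffer exchange to DPBS + 1 mM CaCl2, 0.5 mM MgCl2, 0.05% BSA; cpds in DMSO + […] (300 uM stock), 30 min 37C; HTRF cAMP detection.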
gsp ag: agonists of gsp mutant (McCune-Albright syndrome). gsp mutant cells, cAMP HTRF, 30 min; control for the full effect not named in the record. Potency, µM (highest dose often 76.9 µM), without a hit: top-dose activation (cAMP increase), most hits filed as activators. hit rate 0.13% among 340,000; active = well fitted activation curve with a large enough effect; inconclusive = small, poorly fitted or top-dose-only effect, or another doubt; inactive = no such curve, though single readings can be large or run the other way; cell line not stated here;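 further: phosphodiesterase inhibitor Ro 20-1724 added with compounds to block cAMP breakdown; potency means the concentration at half of the fitted maximal effect; nearly all actives have a fitted effect of over 60% in size; about a fifth of the inactives were tested at one dose only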
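Cells stably selected in G418 were plated at 2000/well, grown 16-24 hr, then given compounds in DMSO with the PDE inhibitor […] (300 uM solution added) for 30 min at 37C; cAMP was read by HTRF.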
ClpP mod: qHTS Assay for Activators of ClpP; hit rate 1.9% among 340,000; purified B. subtilis ClpP, FRET peptide cleavage, 20 min; ATP-dependent Clp protease proteolytic subunit (Bacillus subtilis (strain 168)), P80244; AID 651965, 2013; Potency, µM (top dose mostly 57.5 µM), inactives show top-dose activity change, negative = active; active = well fitted falling curve with a large enough effect; inconclusive = small, poorly fitted or top-dose-only effect; inactive = no such curve, though single readings can be large or run the other way; further: potency means the concentration at half of the fitted maximal effect; the source files actives as falling curves though it sought activators and does not explain the sign; nearly all actives have a fitted effect of over 65% in size; many hits overshoot -100%
Target sequence (P80244 whole entry, looked up): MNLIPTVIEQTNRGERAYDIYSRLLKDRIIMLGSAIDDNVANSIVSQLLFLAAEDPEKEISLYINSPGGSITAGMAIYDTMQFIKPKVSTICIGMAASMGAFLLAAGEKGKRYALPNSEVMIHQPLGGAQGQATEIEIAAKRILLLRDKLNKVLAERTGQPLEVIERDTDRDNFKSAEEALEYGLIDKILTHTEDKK
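ClpP 10 microg/mL final, pH 8 Tris/KCl buffer with BSA, glycerol, Tween-20; compound pinned in; FRET-FV substrate; RT 20 min; Ex320/Em430; ΔFRET vs ADEP 5.8 microM, DMSO, no enzyme.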
TRPV1 PAM: potentiators of human vanilloid receptor 1 (TRPV1); Q8NER1; TRPV1-expressing cells, Fluo-8 calcium influx, capsaicin EC20 potentiation; host cell line not named in the record; control for the full effect not named in the record; potentiation, % at 8.33 µM; hit rate 0.02% among 320,000; AID 540277; active means potentiation above 80%; inconclusive means 30% to 80%; inactive means below 30%; further: 0% is about no effect
Target sequence (Q8NER1 whole entry, looked up): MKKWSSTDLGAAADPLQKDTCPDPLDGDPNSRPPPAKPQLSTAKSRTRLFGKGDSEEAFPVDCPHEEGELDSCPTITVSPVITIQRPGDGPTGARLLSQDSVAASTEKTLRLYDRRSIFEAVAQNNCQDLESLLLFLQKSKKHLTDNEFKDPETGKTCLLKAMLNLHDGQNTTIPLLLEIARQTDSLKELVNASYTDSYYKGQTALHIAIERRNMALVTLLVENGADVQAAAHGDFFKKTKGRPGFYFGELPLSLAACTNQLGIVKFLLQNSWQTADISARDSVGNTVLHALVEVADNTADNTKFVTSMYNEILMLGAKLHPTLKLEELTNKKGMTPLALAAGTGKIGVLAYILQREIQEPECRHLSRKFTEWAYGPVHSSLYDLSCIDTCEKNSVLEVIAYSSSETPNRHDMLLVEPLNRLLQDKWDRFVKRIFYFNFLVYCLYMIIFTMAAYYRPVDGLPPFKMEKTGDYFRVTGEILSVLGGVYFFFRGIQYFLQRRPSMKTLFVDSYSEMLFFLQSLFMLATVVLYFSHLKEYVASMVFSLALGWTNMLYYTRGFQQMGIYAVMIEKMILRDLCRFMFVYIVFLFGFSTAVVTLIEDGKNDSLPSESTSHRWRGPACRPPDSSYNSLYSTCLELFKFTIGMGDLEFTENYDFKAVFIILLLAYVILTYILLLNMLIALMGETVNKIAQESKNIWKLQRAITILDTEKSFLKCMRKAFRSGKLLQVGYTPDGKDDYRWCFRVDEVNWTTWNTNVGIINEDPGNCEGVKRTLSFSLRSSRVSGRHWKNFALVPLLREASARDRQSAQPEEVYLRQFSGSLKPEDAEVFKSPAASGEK
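TRPV1-expressing cells were cultured overnight at 35.5C and loaded with Fluo-8 calcium dye for 40 to 90 min at room temperature. After a 10 s baseline, compound was added and calcium influx was read kinetically for 3 min (ex 480/em 520 nm).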
Menin-MLL FL inh: menin-MLL binding inhibition, fluorescein peptide; 290,000 tested, under 10 active; Fluorescence polarization, fluorescein-MLL peptide displacement from menin; FP activity change, % at 61.4 µM; inconclusive = falling polarisation curve, or a change in total fluorescence; inactive = total fluorescence flat and polarisation flat or rising; no compound was filed as active; the % refers to the polarisation; negative = inhibition;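 further: % of control where 0% means no effect; inhibitors lower the polarisation; unlabelled MLL peptide was the positive control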
Sfp PPTase inh: Sfp phosphopantetheinyl transferase inhibition. Q9F4F7. Biochemical Sfp PPTase activity, qHTS. Potency, µM, without a hit: max response, negative = inhibition, hits mostly inhibitors. hit rate 3.5% among 310,000; active means well fitted inhibition curve with a large enough effect; inconclusive means small, poorly fitted or top-dose-only effect, or another doubt; inactive means no such curve, though single readings can be large or run the other way;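 further: the enzyme is Sfp with the accession as filed and its product quenches rhodamine fluorescence; potency means the concentration at half of the fitted maximal effect; 0% = enzyme reaction without inhibitor and -100% = no enzyme wells; top concentration of the series not given in the record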
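Compounds were incubated with enzyme (final 15 nM) for 15 min at room temperature before substrate addition started the reaction. Fluorescence at 525 nm excitation, 598 nm emission was recorded immediately and after 30 minutes.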
TRPML1 inh: blocks the human TRPML1 channel | TRPML1-inducible cells, Ca2+ dye fluorescence, FDSS; stronger effect = lower value; inhibition of EC80 agonist-evoked calcium signal | activity change, negative = inhibition, % (concentration not given with the values) | hit rate 0.02% among 390,000 | AID 624415; in the data active means activity change below about -50%; inconclusive means about -30% to -50%; inactive means above about -30%;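 further: stimulus is agonist 54-4 at its EC80 concentration; on the % scale 0 is the no-effect control and ±100 the full control effect; compound concentration not given in the record; the text of the record puts the active cut at -80%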
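Tet-induced TRPML1-DL cells loaded with Ca8 no-wash calcium dye were read kinetically on FDSS. Compound addition was followed by EC80 agonist 54-4 (4 uM final); inhibition was read over 110 s.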
An asterisk follows results filed as active; ? = inconclusive; / = not tested or not shown; & = joins results of further samples; [ ] = dose if it differs, or a comment. This is a subset; the hit share may differ from the screen's.

SMILES | gsp antagonist | gsp ag | ClpP mod | TRPV1 PAM | Menin-MLL FL inh | Sfp PPTase inh | TRPML1 inh
COc1cccc(OP(=O)(Nc2ccccc2)Oc2cccc(OC)c2)c1 | ? | 10% | -2.7% | -7 | -2.1 | 5% | 27
CCCNC(=O)N1[C@H]2CC[C@@H]1C(C(=O)OC)=C(c1cccc(OC)c1OC)C2 | 6% | -1% | 1.0% | / | / | / | 29
COCCCNC(=O)c1c(NC(=O)c2ccccc2)n(Cc2ccccc2)c2nc3ccccc3nc12 | 4% | -9% | 32µM* | / | / | / | 47
CC(=O)C1CCC2C3CCC4CC(O)CCC4(C)C3CCC12C (stereo not given) | -18% | / | -0.2% | -10 | / | / | -8
O=c1[nH]c(=O)n(Cc2ccc(F)cc2)c(O)c1C=NCCN1CCCCC1 | 12% | 52% | -3.1% | 8 | 3.2 | 3% | 3
CC(=NCCCN1CCOCC1)c1c(O)n(Cc2ccccc2)c(=O)[nH]c1=O | 7% | 1% | -0.5% | -12 | -2.3 | -6% | -14
CCCC(C)n1[nH]c(=O)c2c1NC(=O)CSC2c1ccccc1 (stereo not given) | 9% | 19%[15.4 µM] | / | -3 | 1.8 | 11% | -2
O=C1c2cccc(O)c2C(=O)c2c(O)cc(CO)cc21 | 5% | / | 0.6% | / | ? | -7% | /
COc1ccc(CCN)cc1OC | -3% | -14% | -3.5% | -3 | 0.2 | -10% | 24
CCOP(=O)(OCC)C(O)c1ccc(OC)cc1 (stereo not given) | 6% | 2% | / | ? | 3.5 | 13% | 22
CN1CCN(c2ccc([N+](=O)[O-])c(NCc3ccco3)c2)CC1 | 7% | -6% | ? | 15 | 3.1 | 7% | -5
Cc1c(C)c2ccc(OCC(=O)N3CCC[C@@H]3C(=O)O)c(C)c2oc1=O | 8% | ? | 3.7% | 9 | 1.8 | -6% | 12
COc1ccc(C(=O)C(Cc2ccccc2)N(C)C)cc1 (stereo not given) | -4% | -21% | -5.6% | 25 | 2.6 | 10% | -30
OC(c1ccc(F)cc1)C(c1ccccc1)N1CCOCC1 (stereo not given) | 11% | -20% | -0.4% | -11 | -0.1 | 0% | 1
CCOC(=O)C1CCN(/C=C2/C(=O)NC(=S)N(c3cccc(OC)c3)C2=O)CC1 | 5% | -82%[inhibitor] | -0.1% | 3 | 1.0 | 0% | 5
O=C1NC(=O)N(c2ccccc2)C(=O)/C1=C/C=C/c1ccco1 | -20% | -23% | 1.7% | 9 | ? | 32µM* | 2
COc1ccc(CCNC2CCCCC2)cc1OC | 14% | 11%[15.4 µM] | / | 2 | -0.4 | 8% | 8
COc1ccc(-n2cnc3cc(C(=O)N4CCC5(CC4)OCCO5)ccc32)cc1 | 14% | 7% | 1.9% | 5 | -3.4 | 16% | -19
O=c1[nH]c(=O)n(Cc2ccccc2)c(O)c1/C=N/Nc1c(F)c(F)c(F)c(F)c1F | 8% | -18% | 0.9% | 9 | 7.3 | 13% | 11
CCC12CN3CCN(CC(C3)C1O)C2 (stereo not given) | -14% | -21% | 0.5% | 4 | -0.7 | 4% | -2
COC(=O)C(c1ccccc1)N1CCCCCC1 (stereo not given) | -5% | 4% | 2.4% | -1 | 1.1 | 12% | 16
COc1ccccc1C=C1C(=O)NC(=S)NC1=O | 0% | -9%[15.4 µM] | -2.9% | / | / | / | 40
CCc1cc(=O)oc2cc(C)cc(OCC(=O)N3CCC(C(=O)O)(c4ccccc4)CC3)c12 | 0% | / | 4.5% | 29 | -2.0 | 9% | /
CN(C)c1ccc(/C=C2\C(=O)NC(=O)N(Cc3ccc(F)cc3)C2=O)cc1 | 4% | -6% | / | -4 | ? | -18% | -11
O=C(Nc1ccccc1)c1cc([N+](=O)[O-])ccc1N1CCNCC1 | -7% | 20% | / | -5 | -0.6 | -2% | 32
C[C@]12CCC(=O)C=C1CCC1C2CC[C@@]2(C)C1CC[C@]2(C)O (stereo not given in full) | -1% | 2% | / | / | / | / | 12
CCOP(=O)(OCC)C(O)c1cccnc1 (stereo not given) | 9% | -13%[15.4 µM] | / | 14 | 4.0 | 6% | 25
Cn1c(O)c(C(=NCCN2CCCCC2)c2ccccc2Cl)c(=O)n(C)c1=O | 4% | 3% | 0.1% | -7 | 1.6 | 8% | -8
C=CCn1c(=O)/c(=C\c2ccccn2)s/c1=C(/C#N)C(=O)NCC1CCCO1 (stereo not given) | -17% | -7%[15.4 µM] | / | -18 | ? | -4% | 20
CCN1CCN(c2cc(N3CCCC3)c(F)cc2[N+](=O)[O-])CC1 | 2% | -25% | 1.2% | -8 | 0.2 | -13% | -6
Cn1c(=O)c2c(nc(-c3ccc(N(CCCl)CCCl)cc3)n2C)n(C)c1=O | -9% | -3%[15.4 µM] | -4.5% | / | / | / | -10
O=S(=O)(c1ccc(Cl)cc1)N1CCCC1c1cccnc1 (stereo not given) | 15% | 0%[15.4 µM] | 1.1% | 13 | 3.2 | -24% | -3
Clc1ccc(CN2CCNCC2)cc1 | 4% | -3%[15.4 µM] | 3.7% | -2 | -2.9 | 18% | -19
Cc1cc(C(=O)OCC(=O)Nc2c(F)cccc2F)c(C)n1C1CC1 | 10% | -12% | -0.9% | 11 | / | / | 5
Cc1ccc(-n2c(=S)[nH]c3ccccc3c2=O)cc1F | / | -24% | -23% | / | / | / | -4
Oc1cc(O)cc(/C=C/c2ccc(O)cc2O)c1 | -6% | / | ? | -1 | / | / | -10
COC(=O)C1=C(c2cc3ccccc3o2)C[C@@H]2CC[C@H]1N2C(=O)NCCCOC(C)C | -3% | / | -0.4% | / | / | / | -9
NCC(O)c1cc(O)c(O)cc1F (stereo not given) | 3% | / | -3.7% | -5 | 4.4 | / | 37
O=c1[nH]c(O)c(N=Nc2cc([N+](=O)[O-])ccc2O)c(=O)[nH]1 | ? | 25% | / | -5 | ? | 5% | -21
CN(C)C(Cc1ccccc1)C(=O)c1cccs1 (stereo not given) | / | / | / | 2 | 2.5 | 16% | /
C=CCn1c(O)c(C(C)=NCCN2CCOCC2)c(=O)[nH]c1=O | 4% | -1% | -1.7% | -6 | -1.2 | -13% | -5
COc1ccccc1N1C(=O)NC(=O)/C(=C/c2ccc3c4c(cccc24)CC3)C1=O | 7% | ? | -21% | -4 | 1.8 | 11µM* | -6
COc1ccc(N2C(=O)C(=O)N(c3ccc(OC)cc3)P2(=O)N(CCCl)CCCl)cc1 | 0% | -43%[inhibitor] | / | / | / | / | -11
CN1c2ccc([N+](=O)[O-])cc2CC2(C(=O)NC(=O)N(c3ccc(Br)cc3)C2=O)C1c1ccccc1 (stereo not given) | -5% | 17% | -2.0% | -4 | 5.5 | 14% | 3
O=C(CN1CCCCC1)NCC(=O)Nc1ccc(Br)cc1C(=O)c1ccccc1 | 4% | -6% | -1.5% | -7 | 2.5 | 3% | 19
CCOc1ccc(S(=O)(=O)Nc2cccc(C(=O)N3CCN(c4ccccn4)CC3)c2)cc1 | / | -30%[inhibitor] | -7.9% | / | / | / | -11
Nc1ncnc2c1ccn2[C@@H]1O[C@H](CO)[C@@H](O)[C@H]1O | ? | / | -2.3% | / | 4.4 | 9% | /
Cc1ccc(-c2cc(-c3ccccc3)cc(-c3ccccc3)[n+]2-c2ccc(C(=O)O)cc2)cc1 | 8% | / | 3.5% | 2 | / | / | 0
O=C(c1ccc2c(=O)n(Cc3ccc4c(c3)OCO4)c(=S)[nH]c2c1)N1CCC2(CC1)OCCO2 | -23% | 0% | -0.2% | 3 | 0.7 | 13% | -8
Cc1ccc(/C=C/C2=NN(Cc3ccc(Cl)c(Cl)c3)C(=O)CC2)cc1 | 5% | 5% | -12% | 4 | 1.3 | ? | -7
O=C(CSc1nnc(NC(=O)C2CC2)s1)NCc1ccccc1Cl | -3% | -46%[inhibitor] | -3.4% | ? | / | 6% | -10
COc1ccc(C(=O)NC(=S)N2C[C@H]3C[C@H](C2)c2cccc(=O)n2C3)cc1OC | 16% | / | -1.0% | 4 | 3.1 | ? | /
CCCCOCCCn1c(N)c(C(=O)OCCOC)c2nc3ccccc3nc21 | -5% | 5% | 1.6% | 5 | 7.8 | 13% | 17
CCOC(=O)C1(c2ccccc2)CCN(CC(O)c2ccc(NC(C)=O)cc2)CC1 (stereo not given) | 9% | 5% | / | / | / | / | 12
CNC(=O)N(C)c1nnc(C(C)(C)C)s1 | 1% | ? | -0.9% | 9 | 1.4&0.4 | 8%&-4% | -4
COC(=O)Nc1nc2ccccc2[nH]1 | 3% | -5% | -1.6% | / | / | / | -3
O=c1[nH]c(=S)n(-c2ccccc2F)c(O)c1C=Nc1ccc(N2CCOCC2)cc1 | -22% | 4%[15.4 µM] | / | 6 | ? | 1% | -12
O=C(c1ccc2c(c1)ncn2C1CCCCC1)N1CCC2(CC1)OCCO2 | 17% | 0% | 1.4% | -7 | 0.2 | 4% | 1
COC(=O)C1=C(c2ccc(F)cc2OCc2ccccc2)C[C@@H]2CC[C@H]1N2C(=O)NC(C)C | -19% | -16% | 0.3% | -8 | / | / | 23
COC(=O)C1=C(c2cccc(C#N)c2)C[C@@H]2CC[C@H]1N2C(=O)NC1Cc2ccccc2C1 | 2% | -16% | -4.0% | -9 | / | / | -11

Following part
SMILES | gsp antagonist | gsp ag | ClpP mod | TRPV1 PAM | Menin-MLL FL inh | Sfp PPTase inh | TRPML1 inh
CCc1cc2c(=O)n(C(C)C(=O)OC3CCCCC3)cnc2s1 (stereo not given) | -4% | -38%[inhibitor] | -5.3% | -3 | -0.3 | 4% | 2
CC12CCCCC1=[N+]([O-])CN2O (stereo not given) | 7% | 2% | 0.3% | 10 | 8.9 | 1% | -3
OC(CNCc1ccccc1)c1ccc(Cl)cc1 (stereo not given) | 6% | -1% | / | / | / | / | 5
COc1ccc(-c2nnn(CC(=O)OC3CCCCC3)n2)cc1OC | ? | -56%[inhibitor] | -2.8% | -4 | -2.3 | -11% | -9
O=C(C[N+]12CCC(CC1)C(OC(=O)c1ccccc1)C2)c1ccc([N+](=O)[O-])cc1 (stereo not given) | 7% | 0% | -1.9% | / | 0.9 | -1% | -3
CC1CCN(CCc2nc3ccccc3[nH]2)CC1 | 7% | 7% | / | 2 | 0.2 | 16% | -22
